# Bioassay records: PubChem, National Center for Advancing Translational Sciences (NCATS)
# D2 ag: activates the human D2 dopamine receptor; DiscoveRx PathHunter D2 beta-arrestin, luminescence, 90 min; 100% = 57 uM dopamine signal; AID 624465; activation, % (no concentration beside the values); P14416; 360,000 tested, 0.084% active; in the data active = activation above about 40%; inconclusive = about 15% to 40%; inactive = below about 15%; also: compound concentration not given in the record; the text of the record calls up to 30% inactive
# Target sequence (P14416 whole entry, looked up): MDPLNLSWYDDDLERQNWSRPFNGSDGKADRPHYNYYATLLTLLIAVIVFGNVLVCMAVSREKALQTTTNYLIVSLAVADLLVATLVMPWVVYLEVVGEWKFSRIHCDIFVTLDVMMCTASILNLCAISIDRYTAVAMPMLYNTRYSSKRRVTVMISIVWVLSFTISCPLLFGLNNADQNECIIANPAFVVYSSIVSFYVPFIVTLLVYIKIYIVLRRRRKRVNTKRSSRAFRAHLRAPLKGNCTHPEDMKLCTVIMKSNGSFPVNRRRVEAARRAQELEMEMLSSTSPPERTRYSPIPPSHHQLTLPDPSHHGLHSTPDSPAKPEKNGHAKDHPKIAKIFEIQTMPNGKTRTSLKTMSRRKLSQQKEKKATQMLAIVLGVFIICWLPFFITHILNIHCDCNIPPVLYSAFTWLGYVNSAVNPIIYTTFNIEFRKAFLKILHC
#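 Agonist mode: compounds alone added to overnight-plated D2 PathHunter cells for 90 min at 37 C, with 57 uM final dopamine (EC100) defining full response. Beta-arrestin recruitment detected by chemiluminescent reagent, read after 1 h at ambient temperature.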
# Six1-Eya2 inh: blocks human Six1 binding to Eya2; AlphaScreen GST-Six1/His-Eya2 binding, biochemical; active compounds read low; control for the full effect not named in the record; activity change, % (no concentration beside the values); 360,000 tested, 0.56% active; Q15475+O00167; AID 651725; in the data active = activity change below about -65%; inconclusive = about -30% to -65%; inactive = above about -30%; also: % is scaled to controls: 0 for no effect and ±100 for the full control effect
#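 AlphaScreen luminescence read after one hour at 37 °C in darkness. Pin-transferred compounds met GST-Six1 and His-Eya2 protein (5X stock 250 nM/500 nM) plus glutathione donor and Ni-chelate acceptor beads (5X, 50 ug/mL).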
# PINK1 expr mod: changes PINK1 expression | PINK1 immunofluorescence, high-content cytometry, 24 h | Potency, µM (doses to about 76.6 µM), inactives show top-dose activation (PINK1 increase), actives largely listed as activators | 410,000 tested, 0.2% active | AID 624263; active = well fitted activation curve with a large enough effect; inconclusive = small, poorly fitted or top-dose-only effect; inactive = flat fitted curve, though single readings scatter; cell line not stated here;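 also: potency is read from the fitted curve at half-maximal effect; % of control where 0% means no effect; nearly all actives have a fitted effect of over 65% in size; a mitochondrial uncoupler was the plate control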
#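 Readout is PINK1 immunofluorescence, quantified alongside mitochondrial, cell and nuclear markers by laser-scanning microplate cytometry. Cells from a stable line were exposed to compound titrations (5 concentrations) for 24 hours, with CCCP controls.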
# TRPML1 blocker: human mucolipin-1 channel inhibition; activity change, negative = inhibition, % (test concentration not listed); TRPML1-inducible cells, Ca2+ dye fluorescence, FDSS; active compounds read low; inhibition of EC80 agonist-evoked calcium signal; Q9GZU1; AID 624415; 390,000 tested, 0.02% active; in the data active means activity change below about -50%; inconclusive means about -30% to -50%; inactive means above about -30%;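 also: stimulus is agonist 54-4 at its EC80 concentration; % is scaled to controls: 0 for no effect and ±100 for the full control effect; compound concentration not given in the record; the text of the record puts the active cut at -80%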
# Target sequence (Q9GZU1 whole entry, looked up): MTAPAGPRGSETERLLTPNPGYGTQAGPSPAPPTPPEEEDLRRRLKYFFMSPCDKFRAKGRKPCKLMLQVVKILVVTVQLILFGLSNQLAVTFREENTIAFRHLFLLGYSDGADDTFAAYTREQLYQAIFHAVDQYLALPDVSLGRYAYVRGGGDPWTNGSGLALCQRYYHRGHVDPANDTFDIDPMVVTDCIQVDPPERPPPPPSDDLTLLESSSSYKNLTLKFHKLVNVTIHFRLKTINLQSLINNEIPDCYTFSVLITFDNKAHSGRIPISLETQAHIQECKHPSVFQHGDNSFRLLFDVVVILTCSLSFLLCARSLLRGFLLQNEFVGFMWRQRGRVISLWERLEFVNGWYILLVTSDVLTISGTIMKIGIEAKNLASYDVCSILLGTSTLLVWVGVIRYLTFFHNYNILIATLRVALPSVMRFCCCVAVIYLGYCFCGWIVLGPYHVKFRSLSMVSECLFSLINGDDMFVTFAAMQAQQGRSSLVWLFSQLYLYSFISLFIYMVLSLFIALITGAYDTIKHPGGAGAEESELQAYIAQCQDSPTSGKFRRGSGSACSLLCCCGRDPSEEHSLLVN
#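 TRPML1-DL cells, Tet-induced overnight (~16 h, 37 °C) at 1,500 cells/well, were loaded with Ca8 no-wash dye plus quencher for 45-90 min at room temperature. Compounds were pinned during FDSS kinetic reading; agonist 54-4 at EC80 (4 uM final) then added.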
# TRPML1 ag: agonists of human TRPML1 channel; Q9GZU1; TRPML1-expressing cells, Ca2+ dye fluorescence, FDSS; host cell line not named in the record; reference of the full effect not given here; activation, % (test concentration not listed); 410,000 tested, 0.12% active; AID 624414; in the data active = activation above about 50%; inconclusive = about 30% to 50%; inactive = below about 30%; also: 0% is about no effect; the text of the record puts the active cut at 80%
#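 Kinetic FDSS Ca2+ read in Tet-induced TRPML1-DL cells (ABD Ca8 dye plus quencher, 45-90 min RT loading): baseline, then compound, then 110 s agonist window; EC80 agonist 54-4 at 4uM final added afterwards for a 110 s antagonist window.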
# D2 PAM: potentiates the human D2 dopamine receptor allosterically. 360,000 tested, 0.23% active. P14416. AID 624464. potentiation, % (test concentration not listed). DiscoveRx D2 beta-arrestin cells, luminescence, 90 min; 100% = 57 uM dopamine signal; active = potentiation of 50% or more; inconclusive = 30% to 50%; inactive = 30% or less;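 also: compound concentration not given in the record; tested on top of an EC20 dose of dopamine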
#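 D2 cells co-treated with compound plus 50 nM dopamine (EC20) for 90 min at 37 deg C to detect potentiation. Beta-arrestin recruitment was read as enzyme-fragment luminescence after 1 h at ambient temperature. Full response was set by 57 uM dopamine.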
# The depositor's hits bear a star; nt = not tested or not shown; & = joins results of further samples; [ ] = another dose, or the depositor's remark.
mol	TRPML1 ag	TRPML1 blocker	D2 PAM	Six1-Eya2 inh	PINK1 expr mod	D2 ag
COC(=O)c1cc(S(=O)(=O)NCC2CCN(CCc3cccs3)CC2)cn1C	-0.3	-3	-40	8	1.9%	0.3
CN(C)S(=O)(=O)c1ccc(C(=O)Nc2ccccn2)cc1	0.7	-2	13	8	-0.1%[38.3 µM]	1.7
COc1ccccc1C(=O)O[C@H]1[C@H](Cc2ccccc2)NS(=O)(=O)[C@H]2C[C@@H]3C=C[C@]12O3	-0.6&-0.4	-4	-1	-3	-0.6%	-2.8
O=C(O)c1ccc(-n2nc(C(F)(F)F)cc2-c2cccs2)cc1	-0.5	-2	-1	3	-0.3%	-0.3
Cc1ccc(S(=O)(=O)Nc2ccc(O)c(Sc3ncn[nH]3)c2)cc1	0.1	-8	7	-1	-3.2%	13
CN(/N=C/c1ccncc1)c1cnn(-c2ccc(F)c(Cl)c2)c(=O)c1Cl	-0.5	-9	5	4	nt	-1.4
COC(CNC(=O)c1ccc2c(c1)nc(C)n2-c1cc(C)cc(C)c1)OC	-0.7	-11	-1	0	1.3%	1.4
NC(=O)C1CCN(C(=O)CCc2nc3sc4c(c3c(=O)[nH]2)CCCC4)CC1	1.0	-8	-12	-9	-5.9%	-0.4

mol	TRPML1 ag	TRPML1 blocker	D2 PAM	Six1-Eya2 inh	PINK1 expr mod	D2 ag
CCn1ncc(C2=NOC(C(=O)Nc3cc(OC)c(Cl)cc3OC)C2)c1C (configuration not stated)	-0.8	4	-6	-1	19%[38.3 µM]	-2.5
Cc1cc(C=O)c(C)c2c1[nH]c1ccccc12	0.5	0	-5	-3	-0.7%	-3.0
Cc1ccc(S(=O)(=O)N2CCN(C(=O)CNC(=O)c3ccc(Cl)cc3)CC2)cc1	1.5	-5	-3	21	-0.7%	-3.2
COc1ccc(C(=O)Nc2ccc(N3CCN(c4ccccc4)CC3)c(C(=O)O)c2)cc1	-0.3	14	nt	nt	0.5%	nt
Cc1ccc(C(=O)Nc2ccc(-c3nc4ccccc4o3)cc2)cc1Cl	1.0	18	nt	nt	5.6%	nt
O=C(c1ccco1)N1CCN(C(=O)c2cc(-c3ccncc3)nc3ccc(Br)cc23)CC1	-0.4	1	-6	-23	4.5%	-0.4
COc1ccc(-c2cnc3c(NC=O)cc(-c4ccccc4OC)cn23)cc1OC	1.5	nt	5	-24	0.0%	7.1
Cc1ccc2nc(SCC(=O)c3c(C)[nH]c4ccccc34)[nH]c2c1	1.0	-8	-29	-19	-2.1%	1.7

mol	TRPML1 ag	TRPML1 blocker	D2 PAM	Six1-Eya2 inh	PINK1 expr mod	D2 ag
CC(C)c1nnc(SCC(=O)Nc2ccc3c(c2)OCO3)n1C	-0.2	7	-10	-1	2.9%	-1.3
CC(C)n1cnc2cc(NCc3ccccc3O)ccc21	0.4	-25	-9	-9	-0.4%	-2.0
CCOc1ccc(C(=O)OCC(=O)Nc2cccc(S(=O)(=O)N3CCCC3)c2)cc1	2.4	21	-1	-5	1.5%	4.8
COc1ccc(CN2C(=O)c3cccnc3C2=O)cc1S(=O)(=O)N1CCCCC1	0.5	15	-6	0	-0.1%	4.8
CC(=O)c1c(C)[nH]c(C(=O)OCC(=O)NCC(C)C)c1C	0.9	16	0	0	-1.3%	2.8
N#C/C(C(N)=O)=C1/SC=C(c2ccccc2)N1c1ccccc1	-0.2	-2	-4	1	-1.3%	-3.8
S=c1[nH]nc(Cn2nnc3ccccc32)n1-c1ccccc1	-0.7	9	-23	4	0.7%	-2.4
CCOC(=O)c1[nH]cnc1C(=O)NC(C)C	1.2	12	-7	5	-0.8%	3.7

# Reformatted with two lines to a compound: entries from further up
# Sequence of screens – TRPML1 ag	TRPML1 blocker	D2 PAM	Six1-Eya2 inh	PINK1 expr mod	D2 ag
> CN(/N=C/c1ccncc1)c1cnn(-c2ccc(F)c(Cl)c2)c(=O)c1Cl
→ -0.5	-9	5	4	nt	-1.4
> COC(CNC(=O)c1ccc2c(c1)nc(C)n2-c1cc(C)cc(C)c1)OC
→ -0.7	-11	-1	0	1.3%	1.4
> NC(=O)C1CCN(C(=O)CCc2nc3sc4c(c3c(=O)[nH]2)CCCC4)CC1
→ 1.0	-8	-12	-9	-5.9%	-0.4
> CCn1ncc(C2=NOC(C(=O)Nc3cc(OC)c(Cl)cc3OC)C2)c1C (configuration not stated)
→ -0.8	4	-6	-1	19%[38.3 µM]	-2.5

# The listing continues.
mol	TRPML1 ag	TRPML1 blocker	D2 PAM	Six1-Eya2 inh	PINK1 expr mod	D2 ag
O=C(CCNC(=O)C1CCN(S(=O)(=O)c2ccc(F)cc2)CC1)NCCc1cccc(F)c1	1.3	-13	-1	8	7.8%	7.0
CCC(C)[C@H](NC(=O)N1CC(=O)Nc2ccccc21)C(=O)Nc1nccs1 (some centres not stated)	0.3	-10	2	5	2.6%	-0.8
COc1cc(NC(=O)N2CCC3(CC2)Nc2cc(F)ccc2-n2cccc23)cc(OC)c1OC	1.0	-1	nt	nt	1.1%	nt
Cc1c(NC(=O)CSc2nnc3c4ccccc4n(CCc4ccccc4)c3n2)c(=O)n(-c2ccccc2)n1C	0.1	7	-17	-15	-0.5%	5.3
O=C(CSc1nnc(Cc2cccs2)n1-c1ccccc1)Nc1ccc2c(c1)OCCO2	-1.1	3	9	-13	-3.3%	-4.3
CCC1CN(C(=O)NCc2ccc(C)cc2)c2ccccc2O1 (configuration not stated)	1.9&2.0	7&7	0	8	-0.3%&-0.5%	7.1
CC(C)Nc1nc(NNc2nc(Cl)nc(NC(C)(C)C)n2)nc(NC(C)C)n1	0.9	15	-3	-3	1.1%	-1.6
O=S(=O)(c1c(F)cccc1F)N1CCN(Cc2c(O)ccc3ccccc23)CC1	2.4	15	1	4	0.4%	-0.6

mol	TRPML1 ag	TRPML1 blocker	D2 PAM	Six1-Eya2 inh	PINK1 expr mod	D2 ag
O=S(=O)(Nc1ccc2c(c1)OCCO2)c1cccc(F)c1	1.2	0	-4	-2	-0.6%	-3.0
COCCNC(=O)CN(C(=O)Cn1nnc2ccccc21)c1ccccc1C	1.2	35	-12	0	-0.3%	-18
Clc1ccc(-c2cn(-c3ccccc3)c3[n+]2CCS3)cc1	-0.6	1	-6	-12	5.3%	1.5
COc1cc(CN2CCNC(=O)C2CC(=O)N(C)CCC2CCOCC2)cc(OC)c1 (configuration not stated)	1.5	-10	-11	1	0.0%	7.2
N#Cc1ccc(/C=C/C(=O)c2ccco2)cc1	0.4	-3	-7	2	-2.7%	-2.8
COc1ccc(C2c3ccc4ccccc4c3Oc3ncn(CCN4CCOCC4)c(=N)c32)cc1 (configuration not stated)	-0.1	-3	-4	-11	-4.5%	2.0
CC(=O)OCN(C#N)c1nc(N(C)C)nc(N(C)C)n1	0.2	3	-6	-3	3.8%	-5.6
CCOC(=O)c1cccc(NC(=O)c2cc(-c3ccc(Cl)s3)nc3ccccc23)c1	-0.1	8	nt	nt	0.4%	nt

mol	TRPML1 ag	TRPML1 blocker	D2 PAM	Six1-Eya2 inh	PINK1 expr mod	D2 ag
COc1ccccc1C1=NOC(C)(c2nnc(Cc3ccccc3)o2)C1 (configuration not stated)	-1.1	-9	-7	2	0.4%	-0.1
Cc1ccc(NCc2cccn2-c2nnc(N3CCC(C(=O)NC(C)C)CC3)s2)cc1	2.9	-6	nt	nt	0.2%	nt
O=C(O)CSc1ccnc2cc(Cl)ccc12	0.2	10	-12	4	-0.6%	-0.8
COCCn1c(C)cc(C(=O)COC(=O)c2n[nH]c3ccccc23)c1C	0.4	-11	7	-19	-1.9%	0.9
CC1CCN(C(=O)c2cc3ccccc3o2)CC1	0.6	-5	-8	5	1.4%	-1.3
COc1ccc(OCC(=O)Nc2ccc(N3CCN(C(=O)c4ccco4)CC3)cc2)cc1	0.8	0	-2	-3	0.2%	1.5
Cc1ccc(S(=O)(=O)Nc2c(C)cc(C)nc2Cl)cc1	nt	nt	-8	2	3.4%	-6.3
CC[C@@]12C(=O)N(c3cccc(F)c3)C(=O)N1[C@H](c1ccc(Cl)cc1)[C@@H]1C(=O)N(C3CCCCC3)C(=O)[C@@H]12	-0.6	28	-14	-11	0.0%	-3.3

mol	TRPML1 ag	TRPML1 blocker	D2 PAM	Six1-Eya2 inh	PINK1 expr mod	D2 ag
c1ccc(Oc2c3ccccc3nc3ccccc23)cc1	-0.9	10	-11	-2	9.0%	-2.3
COc1ccc(OC)c(C(O)c2coc3ccc(O)c(CN4CCOCC4)c23)c1 (configuration not stated)	0.4	5	12	-2	1.8%[38.3 µM]	1.1
CSCCC(NC(=O)c1cc(S(=O)(=O)N2CCOCC2)ccc1C)c1nc2ccccc2[nH]1 (configuration not stated)	-0.7	0	-5	2	1.1%	10
CCCN1CCN(CCCNC(=O)c2ccc(CS(=O)c3ccccc3C)o2)CC1 (configuration not stated)	-0.3	9	-16	3	1.8%	-4.6
O=C(Nc1ccccc1)N1CCc2ccccc2C1	-0.6	0	-6	5	0.9%	-2.8
CN(C(=O)c1cccc(N2C(=O)C3CC=CCC3C2=O)c1)C1CCCCC1 (configuration not stated)	-0.4	15	1	0	0.6%[38.3 µM]	4.0
Cc1nc2sc(C(c3cccc(F)c3)N3CCC(O)CC3)c(O)n2n1 (configuration not stated)	1.4	0	1	5	-1.6%	0.0
COc1ccc(CNc2nc(SCc3ccc(Cl)cc3)nc3ccccc23)cc1	3.2	-28	nt	nt	-0.1%	nt

mol	TRPML1 ag	TRPML1 blocker	D2 PAM	Six1-Eya2 inh	PINK1 expr mod	D2 ag
CCN(Cc1nc(-c2ccccc2)no1)C(=O)c1ccoc1C	0.1	12	2	-8	-0.2%	-3.6
CC(NC(=O)COC(=O)c1cn(-c2ccccc2)nc1-c1cccs1)c1ccccc1 (configuration not stated)	1.8	4	-10	-4	-3.4%[38.3 µM]	-1.2
O=C(O)CS(=O)(=O)c1ccc(C(F)(F)F)cn1	-0.4	1	-3	3	2.4%	-1.7
Cc1ccc(-n2ncc(C(=O)N3CCN(C4CCCCC4)CC3)c2C2CCN(C(=O)OC(C)(C)C)CC2)cc1C	69*	-15	nt	nt	1.0%	nt
Cc1ccc(CNC(=O)c2cc(C)nc3c2c(C)nn3-c2ccc(C)cc2)cc1	-1.0	0	nt	nt	1.0%	nt
COC(=O)CSc1nc2ccccc2nc1SCC(=O)OC	0.2	-1	-12	11	-0.6%[38.3 µM]	0.3
COc1ccc(NC(=O)C23CCC(C)(C(=O)O2)C3(C)C)cc1 (configuration not stated)	1.0	-18	-3	-1	11%[38.3 µM]	-2.7
COc1ccc(C(=O)C(C)OC(=O)CN2C(=O)c3ccccc3C2=O)cc1 (configuration not stated)	-0.2	-5	-3	-7	-1.9%	-0.8
Cc1ccc2c(c1)C(Cc1ccccc1F)C(=O)N2 (configuration not stated)	-0.7	39	nt	nt	1.5%	nt
CS(=O)(=O)c1ccc(C(=O)OCC(=O)NCc2cccs2)cc1[N+](=O)[O-]	1.1	-8	-18	-6	-2.0%	8.3
